Screening results as filed in PubChem.
eIF4H FP inh = human eIF4H binding inhibitors, primary screen, translation initiation inhibitor project, biochemical, uHTS, fluorescence polarization | 290,000 compounds, 0.94% hits | eIF4H fluorescence polarization binding assay | inhibition, % at 35 µM | Eukaryotic translation initiation factor 4H (Homo sapiens), Q15056;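 active = 50% or more with normal probe brightness, or confirmed in later tests; inconclusive = above 50% with abnormal brightness, or retests that disagree; inactive = below 50% or failed in later tests; about a fifth of its hits are not listed in these tables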;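 note: calls also rest on retests at 20 µM and on dose response follow-up; 0% = protein and probe with vehicle and 100% = probe without protein; strong numbers were not always called active; many hits fall short of the cut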
UUG fidelity = modulators of yeast start codon fidelity, primary screen, whole organism, S. cerevisiae, single point, plate reader. S. cerevisiae UUG-firefly luciferase reporter, luminescence/redox ratio. activity score, % at 18.7 µM. 350,000 compounds, 0.13% hits. AID 602363, 2012;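 active = replicate mean at a twofold rise or more, about +100% in these data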;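 note: firefly luciferase made from a UUG start codon reports start codon fidelity; reporter light over untreated wells divided by growth signal over untreated wells; some hits fall short of that in this replicate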
MT1-MMP act inh = blockers of MT1-MMP proenzyme processing, primary screen, HT1080 RFP-PRO-GFP cells, GFP/RFP fluorescence. Matrix metalloproteinase-14 (Homo sapiens), P50281. GFP/RFP ratio fluorescence, overnight; percent of plate control window, DMSO zero. GFP/RFP ratio change, % at 20 µM. 360,000 compounds, 0.061% hits;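 active = GFP/RFP ratio change of at least 30% with cell ATP level not reduced by more than half and red fluorescence within 50% of control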; note: strong numbers were not always called active
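Test system: HT1080 RFP-PRO-GFP cells; Benchmarks: DMSO and RFP-L50D-GFP cell wells; Timing: cells overnight before dosing, compound overnight, 37 °C, 5% CO2; Compound: one 20 µM compound dose with 1% DMSO; Read-out: GFP/RFP fluorescence ratio.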
Rce1 inh = yeast Rce1p protease inhibitors, primary screen, biochemical, fluorescence, cell-free homogeneous | CAAX prenyl protease 2 (Saccharomyces cerevisiae (strain ATCC 204508 / S288c)), Q03530 | calls only | AID 2563, 2010 | yeast membranes, quenched prenylated peptide cleavage fluorescence | 290,000 compounds, 0.27% hits;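 active = fall in fluorescence gain of 50% or more versus controls, with final raw signal at or below 3038400; inconclusive = same 50% fall but final raw signal above 3038400; inactive = fall in fluorescence gain under 50%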;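 note: plate controls were neutral control wells for no effect and wells lacking membranes for full effect; tested at 10 µM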
Target sequence (Q03530 whole entry, looked up): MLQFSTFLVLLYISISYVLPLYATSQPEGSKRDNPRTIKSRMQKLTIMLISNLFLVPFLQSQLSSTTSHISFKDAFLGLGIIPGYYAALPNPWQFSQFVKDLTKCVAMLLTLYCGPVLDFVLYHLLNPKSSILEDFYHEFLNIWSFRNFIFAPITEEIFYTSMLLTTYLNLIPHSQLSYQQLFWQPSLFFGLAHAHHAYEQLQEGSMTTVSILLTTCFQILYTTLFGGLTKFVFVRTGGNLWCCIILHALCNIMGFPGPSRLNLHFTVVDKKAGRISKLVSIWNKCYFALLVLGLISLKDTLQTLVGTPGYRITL
PABP polyA inh = PABP poly(A) RNA binding inhibitors, primary screen, biochemical, fluorescence polarization, uHTS; AID 2014, 2009; inhibition, % at 35 µM; 290,000 compounds, 1% hits; Polyadenylate-binding protein 1 (Homo sapiens), P11940;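 active = 50% or more with normal probe brightness, or confirmed in later tests; inconclusive = above 50% with abnormal brightness, or retests that disagree; inactive = below 50% or failed in later tests; about a fifth of its hits are not listed in these tables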;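 note: calls also rest on retests at 20 µM and on dose response follow-up; controls were probe without protein and protein plus probe with vehicle; some compounds called inactive have numbers as strong as hits; many hits fall short of the cut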
Env fusion inh = inhibitors of HIV-1 Env-driven cell-cell fusion, primary screen, HeLa-JRFL effector, CEM21 target cells, luciferase. inhibition, % at 12.3 µM. 360,000 compounds, 1.1% hits;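 active = mean replicate inhibition score of at least 50 and every replicate individually at or above 50; inconclusive = only one of the two criteria met; inactive = mean below 50 and not all replicates reaching 50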;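 note: 0% = plate neutral controls and 100% = maraviroc near 300 nM; one replicate is shown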
CSC inhib = cancer stem cell viability inhibitors, primary screen, luminescence; cancer stem cell-like cells viability; inhibition, % at 7.5 µM; 300,000 compounds, 1.1% hits;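 active = mean at 75% or more and at least half the replicates too; inconclusive = mean and replicates disagree; tested in HMLE shEcad cells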;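 note: 0% = median of negative and 100% = median of positive control wells; the first replicate is given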
eIF4H FP inh retest = second read-out of eIF4H FP inh, no call of its own (marks repeat the call); inhibition, %; compound at 20 µM; confirmation average;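 mean of two retest wells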
PABP polyA inh retest = further read-out of PABP polyA inh, marked with its call; inhibition, %; compound at 20 µM; confirmation repeats;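 mean of two retest wells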
MT1-MMP act inh RFP = also measured in MT1-MMP act inh; calls as there; RFP signal change, %; measured here: RFP expression control read;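 0 = vehicle wells; hits needed this value within 50% of zero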
Starred values were filed as active, the others as inactive; i = inactive; ? = inconclusive; · = no result given; + = active, no number; & = joins results of further samples; [ ] = dose if it differs, or a comment.

SMILES	eIF4H FP inh	UUG fidelity	MT1-MMP act inh	MT1-MMP act inh RFP	Rce1 inh	PABP polyA inh	Env fusion inh	CSC inhib	others
O=C(CN1CCN(Cc2ccc(F)cc2)CC1)NCCc1ccccc1	4	-6	1	2	i	6	-18	-4
O=C(COc1ncnc2ccccc12)c1ccc(Cl)cc1	0	·	0	-1	i	7	-18	15
Cc1ccc(S(=O)(=O)N(C)C[C@@H]2OCc3cn(nn3)CCCC(=O)N([C@H](C)CO)C[C@H]2C)cc1	·	-4&-12	2	5	·	·	10[16.7 µM]	·
O=C(NCCOC(=O)c1ccc(Cl)cc1)c1cccnc1	-4	-7	-1	5	i	36	·	7
COc1ccccc1NC(=O)C(C)N1C(=O)C2CCCCC2C1=O (stereo unspecified)	·	-7	-1	1	·	·	·	16
CN(c1ccccc1)c1ccc(/C=N/NC(=O)CC#N)cc1	3	·	-5	-3	+	-6	-155	-16
Cc1ccc(S(=O)(=O)NCCNC(=O)C2CCCNC2=O)cc1 (stereo unspecified)	4	8	0	14	i	-5	-8	-1
COc1ccc(/C=C2/Sc3ccc(C(=O)N4CCOCC4)cc3NC2=O)cc1OC	·	11	-4	1	i	·	17	-7
COc1ccc2c(c1)CCc1cc(C(=O)N3CCN(c4ccc(N5CCOCC5)nn4)CC3)sc1-2	-9	-13	-2	-25	i	-6	·	20
Cc1ccc(-c2nc(-c3ccc(Cl)cc3)sc2CC(=O)O)c(C)c1	-2	·	1	2	i	30	12	·
Cc1nc(S/C(=C/c2ccc(-c3cc(Cl)ccc3C)o2)C(=O)O)n[nH]1	60	·	-9	1	i	11*	-1	37	eIF4H FP inh retest=-2;PABP polyA inh retest=99*
Cc1cc(NC(=O)CCC(=O)N(c2cccc(F)c2)C(C(=O)NC2CCCC2)c2ccccc2)no1 (stereo unspecified)	2	-12	-4	-3	i	15	10	·
CCOC(=O)C1=C(c2ccccc2)N=c2sc(=Cc3cc(OC)c(OC)c(OC)c3)c(=O)n2C1c1cccs1 (stereo unspecified)	·	-7	-5	-5	·	·	13	·
CC(C)CCn1nnnc1C(C(C)C)N1CCC(C(N)=O)CC1 (stereo unspecified)	-8	-14	0	4	i	-1	-42	·
Cc1cccc(NC(=O)Nc2ccc3c(c2)OCO3)n1	-1	·	-1	-1	·	-7	-114	4
COc1ccc2c(c1)-c1nc(N)sc1CC2	2	·	7	10	i	5	-4	12
Cc1cccc(NC(=S)N2CCC(C(=O)c3ccc(F)cc3)CC2)c1C	-18	·	20	-1	i	-1	·	5
Fc1ccc(CSc2nnc3ccc(-c4ccncc4)nn23)cc1	1	-20	1	0	i	-2	-23	2
O=C1CC(N2CCOCC2)C(=O)N1CCN1C(=O)CC(N2CCOCC2)C1=O (stereo unspecified)	2	4	-3	0	i	7	-42	5
Cc1ccc(S(=O)(=O)n2nc(OC(=O)c3ccco3)cc2N)cc1	·	·	3	2	i	·	-4	·
CCOc1ncccc1C(=O)N(C)CC(=O)Nc1ccc(C)cc1	2	·	1	1	i	-4	4	-11
O=C1c2cccnc2-c2ncccc21	-8	-16	-1	4	i	7	·	2
CC(C(=O)Nc1ccc2c(c1)OCO2)c1ccc([N+](=O)[O-])cc1 (stereo unspecified)	6	·	-1	-5	i	-1	-2	·
CCOC(=O)N1CCN(CCC(=O)Nc2ccc(OC)cc2OC)CC1	-6	-17	-4	0	i	-10	·	6
CCc1sc(C(=O)Nc2ncccc2C)cc1C	5	-14	0	1	i	-7	-4	-10
Cc1ccn2cc(CCNS(=O)(=O)c3ccc4c(c3)CCCC4)nc2c1	-8	-16	3	2	i	2	22	2
O=C(Nc1ccccc1)c1cccc(N2C(=O)CCC2=O)c1	-2	-20	-1	5	i	-2	·	-9
CC(=O)NNc1ncnc2c1cnn2-c1ccc(C)cc1	-2	·	5	5	i	-4	23	0
Cc1ccc(-c2c(C(=O)NCc3ccccc3)oc(=O)c3ccccc23)cc1	-4	-1	1	0	i	10	6	-2
CCOC(=O)CN(C(=O)CN1CCC(n2nnc3cc(C)ccc32)CC1)c1ccccc1	7	-12	1	-5	i	12	-100	24
C=C(C)CN(CC)C(=O)CC1C(=O)NCCN1CC(C)(C)C (stereo unspecified)	13	·	-3	2	i	7	-6	1
COc1ccc(S(=O)(=O)N2CCNC(=O)CC2)cc1	-10	-11	-6	0	i	-10	3	4
OCCC1CN(Cc2cnc(-c3ccc(Cl)cc3)nc2)CCN1C1CCCC1 (stereo unspecified)	6	19	7	-9	i	-2	28	40
CCN(CC)S(=O)(=O)c1ccc(C(=O)Oc2coc(CSc3nc(C)cc(C)n3)cc2=O)cc1	-12	·	3	4	i	-14	-9	4
COc1ccc2cc(C3C(C#N)=C(N)OC(C)=C3C(C)=O)c(Cl)nc2c1 (stereo unspecified)	10	·	-14	4	i	2	-15	-5
CCOC(=O)C1=C(C)NC(C)=C(C(=O)OCC)C1C(=O)OCC(=O)N1CCOCC1	·	-12	-2	1	·	·	-30	-18
O=C(CCN1CCN(c2ccccc2)CC1)Nc1cccc(Br)c1	-3	-6	0	-3	i	-3	?	13
CCOn1c(=O)c(-c2ccc(OC)cc2)[n+]([O-])c2ccccc21	-1	-2	-2	-1	i	0	·	5
COc1cccc(Nc2nc(NCCO)c3ccccc3n2)c1	5	·	-1	1	i	-2	·	16
O=C(CCc1ccccc1)Nc1nnc(-c2ccc3c(c2)CCCC3)o1	3	-7	-4	2	i	1	-34	10
Cc1nn(C)c(C(=O)N/N=C/c2cccnc2)c1Cl	-14	-17	0	3	·	-4	1	-2
CCN1C(C(=O)c2ccccc2)=C(Nc2ccccc2C)c2ccccc2S1(=O)=O	-8	·	0	-2	i	-5	23	21
CC1CCCCC1NC(=O)c1cn(C)c2ccc(S(=O)(=O)N3CCOCC3)cc2c1=O (stereo unspecified)	-5	0	-2	-1	i	6	-8	-5
COC(=O)Nc1ccc(S(=O)(=O)NC2CCCCC2)cc1	-2	-3	1	-3	i	7	11	-7
CC(C)c1ccc(NC(=O)C2C3C=CC4(O3)C2C(=O)N(CCN2CCOCC2)C4C(=O)NC2CCCCC2)cc1 (stereo unspecified)	-7	2	0	4	i	6	-8	-7
CN(C(=O)CSCC(=O)O)C1CCCCC1	-3	-9	0	4	i	-3	-1	-6
COc1cc(/C=C/C(=O)NC(C)C)ccc1OCc1ccccc1	-6	8	-4	-1	i	-4	5	2
NC(=O)c1sc2nc(-c3ccco3)ccc2c1N	92*	-4	-10	3	i	80*	·	-10	eIF4H FP inh retest=101*;PABP polyA inh retest=95*
CN1CCN(NC(=O)C23CC4CC(CC(C4)C2)C3)CC1	0	·	-3	2	i	9	-3	-14
COc1cccc(NC(=S)N/N=C2/CCCCc3ccccc32)c1	18	-15	5	1	i	20	-22	·
Next section
SMILES	eIF4H FP inh	UUG fidelity	MT1-MMP act inh	MT1-MMP act inh RFP	Rce1 inh	PABP polyA inh	Env fusion inh	CSC inhib	others
CN(C(=O)c1ccc(=O)[nH]c1)C1(C(=O)NC2CCCCC2)CCCCC1	-4	-1	4	5	i	-4	·	4
COc1ccc(-c2nc3c(C)cc(Br)cn3c2Cc2ccc(C)cc2)cc1OC	·	-22	-1	-5	·	·	-24	·
O=C(c1ccc(-c2ccccc2)cc1)N1CCN(c2ccc3c(c2)C2CC3CCN2C(=O)OCc2ccccc2)CC1 (stereo unspecified)	·	-17	-3	-20	·	·	29	·
CCCCn1c(-c2csc3c2CCC(C)C3)n[nH]c1=S (stereo unspecified)	13	-17	2	-12	i	-6	30	-3
COc1ccc(OCC(=O)Nc2ccccc2OC)cc1	-7	3	-3	0	i	8	·	-11
CCCCn1c(=O)c(CCC(=O)OCC(=O)Nc2cc(Cl)ccc2OC)nc2ccccc21	-17	3	-12	0	i	2	2	-7
CC(=O)OCCN1C(=O)c2cccnc2C1=O	-6	-4	0	3	i	-9	·	-3
CC(C)C(NS(=O)(=O)c1ccc2c(c1)oc(=O)n2C)C(=O)N1CCN(C2CCCCC2)CC1 (stereo unspecified)	-5	-9	-2	5	i	-1	·	-1
CCOC(=O)N/N=C\c1ccc(C)s1	-8	-25	-1	-2	i	13	1	-5
COC(=O)NCN1C(=O)C2C3C=CC(C3)C2C1=O (stereo unspecified)	10	·	-5	-2	i	-6	9	-16
C=CCNC(=O)CN1C(=O)NC(C)(c2ccc(OC)cc2)C1=O (stereo unspecified)	7	0	1	4	i	3	-34	-11
O=C(NCC(=O)N(Cc1cccs1)C(C(=O)NC1CCCCC1)c1ccco1)c1ccco1 (stereo unspecified)	-5	3	-4	0	i	2	·	0
CCc1ccc(NC(=O)COC(=O)c2ccc(Cl)c(S(=O)(=O)N3CCCCCC3)c2)cc1	2	·	1	-1	i	14	-8	23
C=CCc1c(C)[nH]c2ccc(C)cc2c1=O	4	-11	-4	-4	i	8	-28	-10
COc1ccccc1CCN=C(N)NS(=O)(=O)c1ccccc1F	-6	-6	0	-3	i	-5	1	9
CCOC(=O)C1CCCN(C(=O)CSc2nccn2C)C1 (stereo unspecified)	-9	-7	5	4	·	-9	·	·
O=C(CCCCl)Nc1c2c(nn1-c1ccccc1)CSC2	-4	-16	-1	-2	i	-1	-3	1
O=C(CSc1nnc(-c2cccnc2)n1Cc1ccccc1)N1CCOCC1	-6	·	-1	1	i	-3	·	-8
CCC1(c2ccccc2)NC(=O)N(CC(=O)Nc2cccc(C#N)c2)C1=O (stereo unspecified)	10	-14	-2	0	i	-18	4	-16
CCC1(c2ccc(Cl)cc2)NC(=O)N(CC(=O)NC2CCCC(C)C2C)C1=O (stereo unspecified)	·	22	5	-4	·	·	-21	·
Cn1c(SCC(=O)Nc2cccc(O)c2)nnc1-c1ccc(S(=O)(=O)N2CCOCC2)cc1	21	-16	1	0	i	-5	·	-10
CCCCn1c(N)c(N(CCOC)C(=O)c2ccc(N3CCCC3)c([N+](=O)[O-])c2)c(=O)[nH]c1=O	·	·	2	1	i	·	·	-7
Cc1ccc(C)c(NC(=O)CNC(=O)N2CC(=O)Nc3ccccc32)c1	-2	-8	4	1	i	2	-1	-4
CCOc1ccc(NC(=S)c2ccncc2)cc1	3	·	-3	-26	i	-6	8	-3
CSc1ncccc1C(=O)Nc1nc2c(C)cccc2s1	3	·	-7	-8	i	-3	-22	-7
O=C(NCCNC(=O)c1ccccn1)c1ccc(F)cc1	-14	-16	1	4	i	6	-5	·
COC(=O)[C@@]1(Cc2ccccc2)[C@H]2C(=O)N(C)C(=O)[C@H]2[C@H]2CN=C(SCC3CC3)N21	·	-17	3	4	·	·	8	·
Cc1ccc(S(=O)(=O)N2CCC[C@H]2C(=O)Nc2ccccc2Cl)cc1	·	-26	0	-5	·	·	-15	13
